Screening results from PubChem.
Mtb bLac sens: beta-lactam sensitization of Mtb H37Rv. M. tuberculosis H37Rv growth with meropenem, percent inhibition; hits of this screen are not shown here. inhibition, % at 25 µM. actives 0.27% (n = 330,000);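 active = about 74% or more and at least 40 points above the plate without the antibiotic, then above 30% in a dose series; inconclusive = first-round hits that could not be retested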;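 note: growth measured after seven days incubation then overnight dye step; 0% = bacteria only wells and 100% = bacteria with antibiotic; twin plates without the antibiotic show which effects depend on it; some results filed as inactive read as strong as hits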
RecA intein inh: inhibitors of M. tuberculosis RecA intein splicing. P9WHJ3. cell-free RecA intein splicing, fluorescence. inhibition, %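 (about 9 µM by stock and volumes)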. actives 0.75% (n = 290,000). AID 2221; in the data active = inhibition above about 30%; inconclusive = no clear call, values can overlap the other calls;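 note: 0% = vehicle wells and 100% = reference inhibitor control wells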
Target sequence (P9WHJ3 whole entry, looked up): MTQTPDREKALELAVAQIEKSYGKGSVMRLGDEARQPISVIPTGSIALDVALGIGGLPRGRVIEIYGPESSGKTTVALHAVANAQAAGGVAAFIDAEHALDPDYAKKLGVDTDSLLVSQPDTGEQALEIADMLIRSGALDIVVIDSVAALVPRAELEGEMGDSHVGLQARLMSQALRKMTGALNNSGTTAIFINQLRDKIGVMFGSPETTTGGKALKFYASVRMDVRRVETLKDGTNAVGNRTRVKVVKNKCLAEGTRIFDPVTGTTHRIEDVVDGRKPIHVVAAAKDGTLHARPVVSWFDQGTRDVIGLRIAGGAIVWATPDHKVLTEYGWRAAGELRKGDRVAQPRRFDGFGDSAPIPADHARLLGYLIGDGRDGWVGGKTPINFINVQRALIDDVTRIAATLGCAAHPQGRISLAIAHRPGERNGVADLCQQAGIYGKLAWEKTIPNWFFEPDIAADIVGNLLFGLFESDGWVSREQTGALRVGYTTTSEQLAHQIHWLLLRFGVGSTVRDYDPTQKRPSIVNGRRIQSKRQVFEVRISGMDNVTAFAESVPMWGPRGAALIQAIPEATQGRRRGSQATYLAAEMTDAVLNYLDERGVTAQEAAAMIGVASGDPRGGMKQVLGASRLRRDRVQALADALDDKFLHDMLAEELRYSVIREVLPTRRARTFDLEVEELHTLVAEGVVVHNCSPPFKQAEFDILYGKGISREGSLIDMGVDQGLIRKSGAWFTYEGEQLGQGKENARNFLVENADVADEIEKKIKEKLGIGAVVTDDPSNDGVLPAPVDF
Arbovirus anti: arbovirus infection inhibition; inhibition, % at 10 µM; arbovirus infection cell-based antiviral screen; actives 0.37% (n = 200,000);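 active = inhibition from about 30%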;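 note: bluetongue infection of BSR cells; cell survival read as ATP light after 72 h; 0% = infected wells without compound and 100% = uninfected wells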
YopH inh: YopH (Yersinia) phosphatase inhibition | fluorescence Ex485/Em525 | inhibition, %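 (about 10 µM by stock and volumes)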 | actives 0.16% (n = 140,000) | AID 898;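 active = inhibition of 50% or more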;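 note: controls were vehicle for no effect and minimum signal wells for full effect; inactives centre near -20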
Mtb growth: M. tuberculosis H37Rv growth inhibitors, H37Rv strain (AID 1626); M. tuberculosis H37Rv growth inhibition; higher % means a stronger effect; inhibition, % at 10 µM, or IC50 in µM where a hit was titrated; actives 0.95% (n = 220,000);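 active = confirmed in a dose series; inconclusive = inhibition above 80% but not taken into the dose series; inactive = below 80% or under 30% at every dose of the series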;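 note: bacteria incubated seven days before Alamar blue readout; 0% = bacteria only wells and 100% = bacteria with antibiotic wells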
Arbovirus anti repeat: second read-out of Arbovirus anti, no call of its own (marks repeat the call); inhibition, %; measured here: 10K subset replicate screen; many hits read low in the repeat;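 first of two repeat runs on a subset; 0% = infected and 100% = uninfected wells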
* = called active by the depositor; ? = inconclusive; / = no result given. An excerpt (hit frequency here may not be typical).

SMILES	Mtb bLac sens	RecA intein inh	Arbovirus anti	YopH inh	Mtb growth	others
O=S(=O)(c1ccc(NC(=S)N2CCN(c3ccccc3F)CC2)cc1)N1CCOCC1	-7.9	-2.6	-2.4	/	-1.6%
CCOC(=O)COc1nc(-c2ccccc2)cc(-c2ccco2)c1C#N	93.9	-2.4	/	/	?
Cc1csc2nc(O)c(C(=O)NCCN3CCOCC3)c(=O)n12	-1.8	-2.2	/	/	/
O=C(O)c1cc(-c2cc(C(=O)O)c3ccccc3n2)nc2ccccc12	7.8	0.6	/	/	/
Cc1ccc(Sc2c(C)nn(C(=O)c3cccc(S(=O)(=O)N4CCOCC4)c3)c2C)cc1	-14.1	23.0	19.2	4.3	0.2%
CCC(=O)NCCc1nc2ccccc2n1Cc1ccc(C)cc1	0.6	3.7	-1.4	-104.6	-3.5%
O=C(C1CC1)N1CCc2cc(Br)cc(S(=O)(=O)NCCCN3CCCCC3)c21	-1.9	0.8	/	/	/
CNC(=S)NNc1nc(C)cc(C)n1	-16.9	-0.3	-3.8	/	-2.7%
Cc1ccccc1C(=O)NC1CCN(C(=O)Nc2ccc(F)cc2)CC1	4.4	0.3	/	/	/
Cc1cccc(NC(=O)COc2ccc(Br)cc2C)n1	-8.3	0.7	-1.1	-23.4	-7.8%	Arbovirus anti repeat=-4.9
O=C(NC12CC3CC(CC(C3)C1)C2)c1ccc(=O)oc1	-4.1	-2.1	-1.6	-27.9	-2.6%
CN(C)S(=O)(=O)c1cccc(NC(=O)COC(=O)/C=C/c2ccc(Br)o2)c1	15.2	1.5	/	/	-11.6%
O=C(NC1CC2CCCC(C1)N2Cc1ccccc1)c1ccc([N+](=O)[O-])cc1 (stereo unspecified)	-3.9	0.7	/	/	/
Nc1nccc(-c2cccs2)n1	6.9	-0.6	9.4	/	4.2%
O=C(CC1C(=O)NCCN1Cc1c(F)cccc1Cl)NCCCOc1cccnc1 (stereo unspecified)	-3.0	1.1	/	/	/
O=c1c2cc(Cl)cc(Cl)c2nc(CN2CCOCC2)n1-c1ccccc1F	3.2	2.9	15.1	-29.0	3.9%
O=C(CCl)N1CCN(S(=O)(=O)c2ccc3ccccc3c2)CC1	99.2	76.0*	/	/	/
COc1cc(/C=C2\C(=O)ON=C2c2ccccc2)cc(OC)c1OC	1.9	-1.8	6.8	-1.9	-1.0%
CC(=O)c1ccc(OCCCC(=O)NCCc2ccc(C(F)(F)F)cc2)cc1	3.7	-0.2	/	/	/
O=C(COc1ccccc1)Nc1ccncc1Cl	?	3.3	/	/	/
Cc1cccn2c(=O)c3cc(C(=O)N(C)C)n(C)c3nc12	1.8	-19.0	3.1	1.8	-4.2%
COc1cccc(OCC(=O)Nc2ccccc2NC(C)=O)c1	?	0.1	2.4	-61.0	/
O=C(Nc1cccc(-c2cn3ccccc3n2)c1)c1cc2ccccc2oc1=O	-1.0	1.3	-9.8	-12.8	-0.7%
C/C(=N\NC(=O)CN(c1ccccc1)S(=O)(=O)c1ccccc1[N+](=O)[O-])C(C)(C)C	2.2	5.6	1.2	-19.5	1.7%

Grouped by structure: the entries above containing sulfur.
SMILES	Mtb bLac sens	RecA intein inh	Arbovirus anti	YopH inh	Mtb growth	others
O=S(=O)(c1ccc(NC(=S)N2CCN(c3ccccc3F)CC2)cc1)N1CCOCC1	-7.9	-2.6	-2.4	/	-1.6%
Cc1csc2nc(O)c(C(=O)NCCN3CCOCC3)c(=O)n12	-1.8	-2.2	/	/	/
Cc1ccc(Sc2c(C)nn(C(=O)c3cccc(S(=O)(=O)N4CCOCC4)c3)c2C)cc1	-14.1	23.0	19.2	4.3	0.2%
O=C(C1CC1)N1CCc2cc(Br)cc(S(=O)(=O)NCCCN3CCCCC3)c21	-1.9	0.8	/	/	/
CNC(=S)NNc1nc(C)cc(C)n1	-16.9	-0.3	-3.8	/	-2.7%
CN(C)S(=O)(=O)c1cccc(NC(=O)COC(=O)/C=C/c2ccc(Br)o2)c1	15.2	1.5	/	/	-11.6%
Nc1nccc(-c2cccs2)n1	6.9	-0.6	9.4	/	4.2%
O=C(CCl)N1CCN(S(=O)(=O)c2ccc3ccccc3c2)CC1	99.2	76.0*	/	/	/
C/C(=N\NC(=O)CN(c1ccccc1)S(=O)(=O)c1ccccc1[N+](=O)[O-])C(C)(C)C	2.2	5.6	1.2	-19.5	1.7%

The results go on.
SMILES	Mtb bLac sens	RecA intein inh	Arbovirus anti	YopH inh	Mtb growth	others
COc1ccc(CNCc2ccncc2)c(OC)c1	-2.7	-2.4	/	/	/
O=C(CN1C(=O)S/C(=C\c2cccs2)C1=O)Nc1ccc(O)c(C(=O)O)c1	-0.7	1.4	/	/	/
CCOC(=O)N1CCN(S(=O)(=O)c2ccc(F)cc2)CC1	-6.0	8.9	2.4	-18.7	0.4%
CCCCN(C)C(=O)C1CCC(=O)N(c2cc(OC)c(OC)c(OC)c2)C1c1ccc(OC)cc1 (stereo unspecified)	2.8	0.5	-0.5	-15.0	-10.5%
CCCCn1c(O)c(C=Nc2c(C)n(C)n(-c3ccccc3)c2=O)c(=O)[nH]c1=O	-5.8	-3.7	-5.9	-15.6	-0.1%
Cc1cccc(OCC(=O)N/N=C\c2cn(C)c3ccccc23)c1	34.4	-0.4	2.2	/	-9.1%
COc1ccc(S(=O)(=O)NN(C)C(=O)c2nn(-c3ccccc3)ccc2=O)cc1	1.4	0.0	-3.0	/	-6.0%
COC(=O)c1ccc(N=NNc2cccc(Br)c2)cc1	-8.3	/	8.1	-22.6	31.3%
CC1C(=O)N2CCCc3cc(NC(=O)C(=O)NCCCc4ccccc4)cc1c32 (stereo unspecified)	3.4	4.4	/	/	/
CCOC(=O)Cc1csc(NC(=O)Nc2cccc(Cl)c2)n1	-0.4	1.6	11.1	-16.5	6.0%
CC1CCN(S(=O)(=O)Cc2ccccc2Cl)CC1	-5.1	0.3	-1.5	-31.8	-11.6%
CC(=O)c1sc(NC(=O)C2CCN(c3ncnc4sc(C)c(C)c34)CC2)nc1-c1ccccc1	-2.5	-0.8	/	/	/
Cc1nn(C)c(C)c1Nc1ccc(N2C(=O)C3C4C=CC(C4)C3C2=O)cc1[N+](=O)[O-] (stereo unspecified)	5.1	2.3	-0.5	/	1.3%
COc1cc(/C=C/[N+](=O)[O-])ccc1OCc1cccc(C(=O)O)c1	/	1.4	-6.0	/	-3.2%
Clc1ccc(CSc2ncn[nH]2)cc1	93.8	1.2	3.8	-26.6	74.3%
COC(=O)CNC(=O)c1ccc(NS(=O)(=O)c2cc([N+](=O)[O-])ccc2Cl)cc1	4.0	/	/	/	7.9%
Cc1ccc(-n2nc3c(c2NC(=O)c2ccco2)CS(=O)(=O)C3)c(C)c1	3.1	10.2	/	/	/
O=C(CN1C(=O)NC2(CCCC2)C1=O)N1CCN(Cc2ccccc2)CC1	-11.0	1.8	/	/	/
Cc1cccc(Nc2nc(N)nc(CSC(=S)N3CCOCC3)n2)c1	4.6	-2.9	-0.5	-13.8	-1.2%
Cc1ccc(-n2c(O)c(/C=N/Nc3ccccc3)c(=O)[nH]c2=O)cc1C	76.3	0.5	/	/	-1.6%
COc1ccc2c(c1)c(C(=O)O)c(C)n2-c1ccccc1	-0.5	-0.5	/	/	-32.0%
Cc1cc(-c2nnc(SCC(=O)Nc3ccc(S(N)(=O)=O)cc3)n2N)n[nH]1	10.4	10.0	/	/	/
CCN(CC)C(=O)CC(c1ccc(F)cc1)c1ccc(OC)cc1 (stereo unspecified)	0.1	2.9	-1.6	-10.8	-2.8%
CC(=O)Nc1nnc(-c2ccco2)o1	5.1	-6.6	3.4	/	0.6%

Reprinted at random: 6 records from the list, in no set order.
SMILES	Mtb bLac sens	RecA intein inh	Arbovirus anti	YopH inh	Mtb growth	others
CC(=O)c1ccc(OCCCC(=O)NCCc2ccc(C(F)(F)F)cc2)cc1	3.7	-0.2	/	/	/
CCCCN(C)C(=O)C1CCC(=O)N(c2cc(OC)c(OC)c(OC)c2)C1c1ccc(OC)cc1 (stereo unspecified)	2.8	0.5	-0.5	-15.0	-10.5%
O=C(CC1C(=O)NCCN1Cc1c(F)cccc1Cl)NCCCOc1cccnc1 (stereo unspecified)	-3.0	1.1	/	/	/
Nc1nccc(-c2cccs2)n1	6.9	-0.6	9.4	/	4.2%
CC1C(=O)N2CCCc3cc(NC(=O)C(=O)NCCCc4ccccc4)cc1c32 (stereo unspecified)	3.4	4.4	/	/	/
Cc1nn(C)c(C)c1Nc1ccc(N2C(=O)C3C4C=CC(C4)C3C2=O)cc1[N+](=O)[O-] (stereo unspecified)	5.1	2.3	-0.5	/	1.3%

More records follow.
SMILES	Mtb bLac sens	RecA intein inh	Arbovirus anti	YopH inh	Mtb growth	others
CC(C)C(NS(=O)(=O)c1cccs1)C(=O)Nc1nc(C(C)(C)C)cs1 (stereo unspecified)	-3.1	2.6	-12.0	-32.1	-2.4%
NC(=O)c1ccc[n+](CC(=O)Nc2ccccc2C(=O)O)c1	-4.5	0.5	/	/	/
O=c1[nH]c2ccccc2c(O)c1O	-5.4	-6.2	-1.9	/	-3.5%	Arbovirus anti repeat=-0.6
CN1CCN(c2ccc(C(CC(N)=O)NC(=O)c3ccccc3)cc2[N+](=O)[O-])CC1 (stereo unspecified)	-7.6	-0.1	/	/	/
CC(=O)NCCNC(=O)c1ccc(Cn2c(=O)[nH]c3ccsc3c2=O)cc1	-3.9	-6.4	/	/	/
CCOc1ccc(NC(=O)Cn2nnc3c(cnn3-c3ccc(F)cc3)c2=O)cc1	-3.6	2.4	6.3	/	3.8%
COc1ccccc1C(=O)Nc1sc2c(c1C(N)=O)CCCC2	4.4	-2.1	/	/	/
COc1ccccc1CNC(=O)CCNC(=O)Cn1ccc2ccccc2c1=O	-5.8	0.6	-7.2	12.5	-5.6%
CC(C)C(=O)N1N=C(c2ccc(NS(C)(=O)=O)cc2)CC1c1cccs1 (stereo unspecified)	3.0	2.2	-6.8	-14.6	-3.2%
NCc1cccc(-n2cccn2)c1	-9.6	0.4	0.8	-16.9	-3.4%
Cc1sc2ncnc(SCC(=O)NC(C)C(C)C)c2c1C (stereo unspecified)	7.9	-2.3	0.8	/	0.9%
c1cc(-c2cccs2)nc(-c2cccs2)c1	3.4	/	1.4	-8.7	3.8%
Cc1c(OCC(=O)NCC(O)c2ccccc2)ccc2c3c(c(=O)oc12)CCCC3 (stereo unspecified)	99.1	-0.5	/	/	/
Cc1ccc(C)c(NC(=O)C2CC(O)CN2C(=O)Oc2ccccc2)c1 (stereo unspecified)	-2.3	0.1	/	/	/
Cc1cccc(CCNC(=O)C2CCN(S(=O)(=O)c3cccc4nsnc34)CC2)c1	3.5	-0.9	5.5	-3.5	9.3%
O=C(Nc1ccccc1C(=O)NC(Cc1ccccc1)C(=O)O)c1ccco1 (stereo unspecified)	0.1	0.5	/	/	/
CCC(C)NCCOc1ccccc1C (stereo unspecified)	0.0	-1.1	0.2	/	6.0%
Cc1c(C(=O)COC(C)(C)C)[nH]c2ccccc12	71.0	14.7	17.6	-14.9	7.2%
Cc1nn(-c2ccccc2)c(N2CCCC2)c1/C=N/Nc1ccc(S(N)(=O)=O)cc1[N+](=O)[O-]	95.1	1.8	-10.3	-1.4	71.7%
C=CCN1C(=O)NC(=O)/C(=C/c2ccc(OCC(=O)Nc3ccc(C)cc3)cc2)C1=O	9.7	-0.6	/	/	/
CCC/C(O)=C1\C(=O)CC(C)(C)CC1=Nc1ccc(OC)cc1	1.9	-3.0	/	/	/
O=C(c1ccccc1)c1ccc(Cn2cc(CCCO)nn2)cc1	-6.2	-3.0	/	/	/
COc1ccccc1NS(=O)(=O)c1cccc(N2CC(O)=C(c3ccccc3)C2=N)c1	/	-0.1	-0.8	-21.4	-1.0%
O=C(COc1ccc(Br)cc1)N/N=C1\SCC(=O)N1c1ccc(F)cc1	-5.2	1.2	-6.7	-30.3	-7.7%
O=C(NC12CC3CC(CC(C3)C1)C2)c1ccccc1	2.9	1.5	-4.7	/	2.5%
Cc1ccc(Cn2c3ccccc3c3cn[nH]c(=O)c32)cc1	3.4	-0.6	-0.1	4.5	7.0%	Arbovirus anti repeat=6.2
CCN(C1CCCCC1)S(=O)(=O)c1ccc(S(=O)(=O)N(CC(=O)Nc2ccccc2)C2CC2)cc1	-4.2	-1.7	-5.1	-15.9	-0.3%
COc1ccc(C(=O)Nc2ccccc2C(=O)Nc2cccc(C)n2)cc1	2.1	1.2	/	/	/
COCc1nnc(NS(=O)(=O)c2ccc([N+](=O)[O-])cc2)s1	8.6	1.3	3.8	-13.2	12.2%
N#Cc1ccc(-c2cccnc2)nc1SCc1ccc(Cl)c(Cl)c1	/	2.7	-36.6	-15.0	-8.2%
CC(C)c1cc(Br)ccc1OCCCN1C(=O)NC(C)(C)C1=O	-18.7	5.2	-9.1	-1.4	0.2%
